AF4-AF9 inh – inhibitors of AF4 peptide binding to AF9, primary screen, biochemical, AlphaScreen, biotin-AF4 peptide, FLAG-AF9, single point; Protein AF-9 (Homo sapiens), P42568; inhibition, % at 10 µM; AID 651704, 2012; 350,000 tested, 0.47% active;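 active means every replicate reaching a set inhibition limit, whatever the replicate mean, cut at about 25% in these data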;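 further: 0% = plate neutral control median and 100% = total signal loss; the record names both 10 and 1 µM as test concentration; the first replicate is given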
Target sequence (P42568 whole entry, looked up): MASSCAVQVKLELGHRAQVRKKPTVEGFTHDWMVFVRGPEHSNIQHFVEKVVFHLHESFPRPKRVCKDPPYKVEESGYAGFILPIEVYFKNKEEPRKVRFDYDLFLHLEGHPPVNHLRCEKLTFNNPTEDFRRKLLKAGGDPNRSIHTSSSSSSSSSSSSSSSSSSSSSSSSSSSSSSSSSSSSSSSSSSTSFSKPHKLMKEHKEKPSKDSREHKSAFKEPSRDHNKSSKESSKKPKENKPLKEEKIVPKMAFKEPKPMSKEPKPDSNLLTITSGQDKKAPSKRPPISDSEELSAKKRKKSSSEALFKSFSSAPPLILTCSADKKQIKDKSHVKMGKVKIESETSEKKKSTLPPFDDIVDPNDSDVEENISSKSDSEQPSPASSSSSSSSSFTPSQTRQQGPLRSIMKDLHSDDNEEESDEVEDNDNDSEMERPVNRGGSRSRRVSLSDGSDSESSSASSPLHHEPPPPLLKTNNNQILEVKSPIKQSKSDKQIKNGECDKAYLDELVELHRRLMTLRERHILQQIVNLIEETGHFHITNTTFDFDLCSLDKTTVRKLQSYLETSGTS
FGF22 binding – binders of human FGF22 protein, primary screen, FGF22 synaptogenesis inhibitor project, biophysical, thermal shift, single point; AID 651658, 2012; Fibroblast growth factor 22 (Homo sapiens), Q9HCT0; recombinant FGF22 thermal shift, SYPRO orange fluorescence; percent of sucrose octasulfate shift, DMSO zero; 340,000 tested, 1.5% active; calls only at 9.99 µM;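 active means melting point raised past a set limit in the mean and every replicate; three in four hits are not shown here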
Target sequence (Q9HCT0 whole entry, looked up): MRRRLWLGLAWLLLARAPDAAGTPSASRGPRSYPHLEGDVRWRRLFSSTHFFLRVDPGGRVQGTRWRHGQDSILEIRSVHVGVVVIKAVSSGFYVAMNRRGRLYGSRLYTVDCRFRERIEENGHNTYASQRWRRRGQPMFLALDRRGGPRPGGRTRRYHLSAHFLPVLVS
Active calls of the source: *; i = inactive.

SMILES	AF4-AF9 inh	FGF22 binding
COc1cccc(-c2ccc3n(c2=O)C[C@@H]2[C@@H](CO)[C@H](C(=O)NC4CCC4)[C@H]3N2C)c1	-12	i
COc1ccc(CN(C)C[C@@H]2Oc3ccc(NS(=O)(=O)c4ccccc4)cc3CC(=O)N([C@@H](C)CO)C[C@H]2C)cc1	-2.8	i
C[C@H]1CN([C@@H](C)CO)C(=O)c2cc(NC(=O)NC3CCCCC3)ccc2O[C@H]1CN(C)S(=O)(=O)c1cccs1	0.7	i
C[C@H](CO)N1C[C@H](C)[C@H](CN(C)S(=O)(=O)c2cccs2)Oc2ncc(/C=C/c3ccccc3)cc2C1=O	6.3	i
C[C@H]1CN([C@@H](C)CO)C(=O)c2cccc(NC(=O)c3ccncc3)c2O[C@H]1CN(C)C(=O)Nc1ccc2c(c1)OCO2	-2.3	i
COc1ccc(CN(C)C[C@@H]2Oc3ccc(NC(=O)Cc4ccccc4)cc3C(=O)N([C@@H](C)CO)C[C@H]2C)cc1	-0.7	i
COc1ccccc1CNC(=O)C[C@@H]1C[C@@H]2c3cc(NS(C)(=O)=O)ccc3O[C@@H]2[C@H](CO)O1	-0.8	i
C[C@@H]1CN([C@H](C)CO)C(=O)Cc2cc(NS(=O)(=O)c3ccc(F)cc3)ccc2O[C@H]1CN(C)CC1CCCCC1	-2.0	i
C[C@H](CO)N1C[C@H](C)[C@H](CN(C)S(=O)(=O)c2ccc(Cl)cc2)Oc2ccc(NC(=O)CCCN(C)C)cc2C1=O	-2.0	i
CC(=O)N(C)C[C@H]1Oc2cc(-c3ccccc3C)ccc2S(=O)(=O)N([C@@H](C)CO)C[C@@H]1C	-0.3	i
CCC(=O)Nc1ccc2c(c1)C(=O)N(C)[C@H]1CC[C@H](CC(=O)N[C@H](C)c3ccccc3)O[C@H]1CO2	-0.6	i
CCC(=O)N(C)C[C@H]1Oc2cc(-c3ccccc3C)ccc2S(=O)(=O)N([C@@H](C)CO)C[C@H]1C	0.3	i
C[C@H](CO)N1C[C@H](C)[C@H](CN(C)S(=O)(=O)c2cccc(F)c2)Oc2ncc(-c3ccccc3)cc2C1=O	-7.5	i
COc1ccc(CN(C)C[C@@H]2OCCCC[C@H](C)Oc3ccc(NC(=O)Nc4cccc5ccccc45)cc3C(=O)N([C@@H](C)CO)C[C@H]2C)cc1	-5.7	i
C[C@H]1CN([C@@H](C)CO)C(=O)c2cc(NC(=O)Cn3cnnn3)ccc2O[C@@H]1CN(C)Cc1ccccc1	-0.8	i
CCNC(=O)[C@@H]1[C@@H](CO)[C@@H]2Cn3c(ccc(-c4ccccc4)c3=O)[C@@H]2N1C(=O)C1CC1	0.3	i
CCCC#Cc1ccc([C@@H]2[C@@H](CO)N(C(=O)CN3CCOCC3)[C@H]2C#N)cc1	0.0	i
O=C(c1cccc(F)c1)N1CC[C@@H]2[C@H](CO)Nc3ccc(C#Cc4cccc(F)c4)cc3[C@@H]21	5.4	i
COc1ccccc1NC(=O)N[C@H]1CC[C@@H](CCn2cc(C3(O)CCCC3)nn2)O[C@H]1CO	-0.2	i
CC(C)C#Cc1ccc2c(c1)O[C@H](CN(C)C(=O)c1cccc(F)c1)[C@H](C)CN([C@@H](C)CO)S2(=O)=O	-11	i
N#C[C@H]1[C@@H](c2ccccc2/C=C/c2ccccc2)[C@@H](CO)N1S(=O)(=O)c1ccccc1	-0.2	i
COCC(=O)NC[C@@H]1[C@H](c2ccc(-c3ccccc3)cc2)[C@H](CO)N1C(C)=O	0.8	i
C[C@@H]1CN([C@@H](C)CO)C(=O)c2cc(NC(=O)CCC(F)(F)F)ccc2O[C@H]1CN(C)C(=O)Nc1ccc(C(F)(F)F)cc1	-0.2	i
COC(=O)[C@@H]1[C@@H](CO)[C@@H]2Cn3c(ccc(-c4ccc(F)cc4)c3=O)[C@@H]2N1S(C)(=O)=O	0.9	i
C[C@@H]1CCCCO[C@H](CN(C)Cc2ccncc2)[C@@H](C)CN([C@@H](C)CO)C(=O)c2cc(NC(=O)Nc3ccccc3)ccc2O1	3.6	i
N#C[C@H]1[C@@H](c2ccccc2)[C@H](CO)N1S(=O)(=O)Cc1ccccc1	-1.7	i
CCCNC(=O)Nc1ccc2c(c1)OC[C@H](C)N(C(=O)C1CC1)C[C@@H](C)[C@H](OC)CN(C)C2=O	-2.0	i
Cc1cccc(S(=O)(=O)N2C[C@@H]3[C@H](c4ccccc42)[C@H](CO)N3CC2CCOCC2)c1	-0.6	i
C[C@@H]1CN([C@@H](C)CO)S(=O)(=O)c2ccc(C#CCN(C)C)cc2O[C@@H]1CN(C)Cc1ccccc1	8.4	i
CCCNC(=O)N(C)C[C@H]1Oc2ncc(-c3ccc(OC)cc3)cc2C(=O)N([C@H](C)CO)C[C@@H]1C	-0.2	i

A different layout for 2 compounds above.
O=C(c1cccc(F)c1)N1CC[C@@H]2[C@H](CO)Nc3ccc(C#Cc4cccc(F)c4)cc3[C@@H]21
  AF4-AF9 inh: 5.4
  FGF22 binding: i

COc1ccccc1NC(=O)N[C@H]1CC[C@@H](CCn2cc(C3(O)CCCC3)nn2)O[C@H]1CO
  AF4-AF9 inh: -0.2
  FGF22 binding: i

(listing goes on)
SMILES	AF4-AF9 inh	FGF22 binding
CN1C(=O)c2cc(NC(=O)Cc3ccccc3)ccc2OC[C@H]2O[C@@H](CC(=O)NC3CCC3)CC[C@H]21	-0.1	i
Cc1cccc(-c2ccc([C@H]3[C@H](CO)N4CCCCN(Cc5cccnc5)C[C@@H]34)cc2)c1	7.4	i
C[C@@H]1CN([C@@H](C)CO)C(=O)c2cc(C#Cc3ccccn3)cnc2O[C@H]1CN(C)C(=O)CCN1CCCCC1	-2.3	i
C[C@@H]1CN([C@H](C)CO)C(=O)Cc2cc(NS(=O)(=O)c3ccc(F)cc3)ccc2O[C@@H]1CN(C)Cc1ccncc1	-1.4	i
[N-]=[N+]=NCc1ccccc1C[C@]1(C(=O)NCC(O)CO)N=C(c2ccc(OCCCO)cc2)O[C@H]1c1ccccc1 (some centres not stated)	2.3	i
CCCN1[C@@H]2c3ccc(-c4ccccc4)c(=O)n3C[C@@H]2[C@@H](CO)[C@@H]1C(=O)N[C@H](C)c1ccccc1	1.8	i
Cc1noc(C)c1NC(=O)Nc1ccc2c(c1)C(=O)N([C@@H](C)CO)C[C@H](C)[C@@H](CN(C)C(=O)Nc1ccc(F)cc1)OCCCC[C@@H](C)O2	-1.0	i
CC(C)NC(=O)N(C)C[C@H]1Oc2ccc(NC(=O)Nc3cccc4ccccc34)cc2C(=O)N([C@@H](C)CO)C[C@@H]1C	-3.1	i
O=C(C[C@H]1CC[C@@H]2[C@H](COC[C@H](O)CN2CCc2ccccc2)O1)NCc1ccc(Oc2ccccc2)cc1	3.5	i
C[C@@H]1CN([C@H](C)CO)S(=O)(=O)c2ccc(-c3cccnc3)cc2O[C@@H]1CN(C)C(=O)c1ccc2c(c1)OCO2	7.1	i
C[C@@H]1CN([C@H](C)CO)C(=O)Cc2cc(NC(=O)Nc3cccc4ccccc34)ccc2O[C@@H]1CN(C)S(=O)(=O)c1ccccc1	-10	i
CCNC(=O)C[C@@H]1C=C[C@H](NC(=O)C2CC2)[C@@H](CO)O1	-1.3	i
COc1ccc(CN(C)C[C@H]2OCCCC[C@@H](C)Oc3ccc(NS(=O)(=O)c4ccc(Cl)cc4)cc3C(=O)N([C@@H](C)CO)C[C@@H]2C)cc1	1.1	i
CC(C)CC#Cc1cnc2c(c1)C(=O)N([C@H](C)CO)C[C@H](C)[C@@H](CN(C)C(=O)c1ccc3c(c1)OCO3)O2	3.6	i
Cc1noc(C)c1S(=O)(=O)Nc1ccc2c(c1)C(=O)N([C@H](C)CO)C[C@H](C)[C@@H](CN(C)C(=O)NC1CCCCC1)OCCCC[C@H](C)O2	-2.8	i
C[C@H]1CN([C@@H](C)CO)C(=O)c2cc(-c3ccccc3)cnc2O[C@@H]1CN(C)C	-2.4	i
O=C(CCN1CCCCC1)N[C@@H]1CC[C@H](CCn2cc(-c3ccc(F)cc3)nn2)O[C@H]1CO	2.9	i
C[C@@H]1CCCCO[C@@H](CN(C)S(=O)(=O)c2ccc(Cl)cc2)[C@@H](C)CN([C@H](C)CO)C(=O)c2cc(NC(=O)Nc3ccccc3)ccc2O1	-0.9	i
CC(C)CC#Cc1ccc2c(c1)O[C@H](CN(C)C(=O)Cc1ccccn1)[C@H](C)CN([C@@H](C)CO)S2(=O)=O	4.7	i
CCCNC(=O)N1C[C@@H](O)COC[C@H]2O[C@@H](CC(=O)N3CCN(C)CC3)CC[C@@H]21	-2.6	i
CCCNC(=O)N1[C@H](CO)[C@H](c2ccccc2)[C@H]1CNC(C)=O	-2.3	i
O=C(C[C@@H]1CC[C@H]2[C@@H](COC[C@@H](O)CN2S(=O)(=O)c2ccccc2)O1)Nc1ccccc1	-1.5	i
Cc1ccccc1S(=O)(=O)N1CCCCN2[C@H](C1)[C@H](c1ccc(C#CCN(C)C)cc1)[C@@H]2CO	0.3	i
O=C(Cc1ccccn1)NCC[C@@H]1CC[C@H](NC(=O)Nc2ccc(C(F)(F)F)cc2)[C@@H](CO)O1	2.4	i
COc1ccc(S(=O)(=O)Nc2ccc3c(c2)C(=O)N([C@H](C)CO)C[C@H](C)[C@H](CN(C)S(=O)(=O)c2ccccc2)OCCCC[C@@H](C)O3)cc1	-3.9	i
O=C(C[C@H]1CC[C@H]2[C@@H](COC[C@@H](O)CN2Cc2ccc(Cl)cc2)O1)NCCc1ccccc1	-1.1	i
C[C@H](CO)N1C[C@H](C)[C@@H](CN(C)S(C)(=O)=O)Oc2ncc(-c3ccc(F)cc3)cc2C1=O	0.9	i
O=C(C[C@@H]1CC[C@H](NC(=O)C2CCC2)[C@@H](CO)O1)NC1CCC1	-2.0	i
Cc1ccc(S(=O)(=O)N2CC[C@@H]3[C@H](CO)N(C)c4ccc(-c5ccc(C#N)cc5)cc4[C@@H]32)cc1	1.6	i
C[C@@H]1CN([C@@H](C)CO)C(=O)c2cc(NS(=O)(=O)c3cccs3)ccc2O[C@@H](C)CCCCO[C@H]1CN(C)S(=O)(=O)c1ccc(Cl)cc1	-1.5	i

Next part (four carried over from the part before).
SMILES	AF4-AF9 inh	FGF22 binding
C[C@H](CO)N1C[C@H](C)[C@@H](CN(C)S(C)(=O)=O)Oc2ncc(-c3ccc(F)cc3)cc2C1=O	0.9	i
O=C(C[C@@H]1CC[C@H](NC(=O)C2CCC2)[C@@H](CO)O1)NC1CCC1	-2.0	i
Cc1ccc(S(=O)(=O)N2CC[C@@H]3[C@H](CO)N(C)c4ccc(-c5ccc(C#N)cc5)cc4[C@@H]32)cc1	1.6	i
C[C@@H]1CN([C@@H](C)CO)C(=O)c2cc(NS(=O)(=O)c3cccs3)ccc2O[C@@H](C)CCCCO[C@H]1CN(C)S(=O)(=O)c1ccc(Cl)cc1	-1.5	i
CN1CCN(C(=O)C[C@H]2CC[C@H]3[C@@H](COC[C@@H](O)CN3S(=O)(=O)c3cccc(Cl)c3)O2)CC1	-4.8	i
COc1cccc(S(=O)(=O)N(C)C[C@@H]2Oc3cc(C4=CCCCC4)ccc3S(=O)(=O)N([C@H](C)CO)C[C@@H]2C)c1	1.2	i
COc1ccc(NC(=O)N(C)C[C@H]2Oc3ccc(NC(=O)C4CCCCC4)cc3C(=O)N([C@@H](C)CO)C[C@@H]2C)cc1	-3.4	i
OC[C@@H]1[C@H](c2ccc(-c3cccc(F)c3)cc2)[C@H]2CN(CCC(F)(F)F)CCCCN12	17	i
COc1ccc(CNC(=O)N(C)C[C@@H]2OCc3ccccc3-c3ccccc3C(=O)N([C@H](C)CO)C[C@H]2C)cc1	-1.9	i
COc1ccc(CN(C)C[C@H]2OCCCC[C@@H](C)Oc3ccc(NS(C)(=O)=O)cc3C(=O)N([C@@H](C)CO)C[C@@H]2C)cc1	-3.8	i
C[C@H]1CN([C@@H](C)CO)C(=O)c2cccc(NS(=O)(=O)c3cccs3)c2O[C@@H]1CN(C)Cc1ccncc1	0.3	i
C[C@@H]1CN([C@H](C)CO)C(=O)c2cc(NS(=O)(=O)c3ccccc3)ccc2O[C@@H](C)CCCCO[C@@H]1CN(C)C(=O)C1CCCCC1	2.0	i
C[C@H](CO)N1C[C@H](C)[C@@H](CN(C)Cc2ccc(C(F)(F)F)cc2)Oc2c(NC(=O)C3CCOCC3)cccc2C1=O	-1.0	i
C[C@H](CO)N1C[C@H](C)[C@@H](CN(C)Cc2ccccc2C(=O)O)Oc2cc(-c3ccc(F)cc3)ccc2S1(=O)=O	1.3	i
O=C(C[C@H]1C=C[C@@H](NC(=O)C2CCC2)[C@H](CO)O1)NCC1CC1	-1.2	i
CCCNC(=O)N(C)C[C@H]1Oc2cc(-c3ccc(C)cc3)ccc2S(=O)(=O)N([C@H](C)CO)C[C@@H]1C	-1.4	i
CO[C@@H]1CN(C)C(=O)c2ccc(NC(=O)Nc3c(C)noc3C)cc2OC[C@@H](C)NC[C@H]1C	-3.1	i
C[C@@H]1CN([C@@H](C)CO)C(=O)c2cccc(NC(=O)NC3CCCCC3)c2O[C@H]1CN(C)S(C)(=O)=O	-0.9	i
COc1ccc2c3c([nH]c2c1)[C@@H](CO)N(S(=O)(=O)c1cn(C)cn1)CC31CCN(CC2CC2)CC1	5.4	i
C[C@@H]1CN([C@H](C)CO)C(=O)c2cc(NC(=O)Cc3ccccc3)ccc2O[C@H]1CN(C)C(=O)Nc1ccc2c(c1)OCO2	0.9	i

The list is partial; rates above refer to the full screens.
